Mtb growth = Mycobacterium tuberculosis H37Rv growth inhibition, cell based, confirmatory dose response (AID 1949); M. tuberculosis H37Rv growth inhibition; most inactive calls were filed without a number and no value below 0 was filed; one-dose inhibition, % at 10 µg/mL; IC50 in µg/mL for titrated hits; actives 1.6% (n = 100,000);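 active means confirmed in a dose series; inconclusive means about 50% or more but not retested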;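 further: bacteria grown 7 days with compound before Alamar blue readout; 0% = untreated bacteria and 100% = reference antibiotic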
An asterisk follows results filed as active; i = inactive; ? = inconclusive. These rows are one share of the data, so the mix of outcomes need not match the whole.

SMILES | Mtb growth
COc1ccc(C)cc1NC(=O)CN(c1ccc(C)cc1C)S(=O)(=O)c1ccc(C)cc1 | 12%
CCOc1cc(C2C(C(=O)OC)=C(C)NC3=C2C(=O)CC(C)(C)C3)cc(Cl)c1O (stereo not drawn) | 0%
COc1ccccc1NC(=O)c1c(NC(=O)c2cccc3ccccc23)sc(C)c1C | 1%
Cc1ccc(/C=C(\C#N)S(=O)(=O)c2ccccc2)c(C)c1 | i
Cc1ccc(Nc2nc(N)nc(CSc3nnnn3-c3ccccc3)n2)cc1 | i
CS(=O)(=O)N(CC(=O)Nc1cccc(Cl)c1Cl)c1cc(C(F)(F)F)ccc1Cl | 3%
CN1CCN(C(=S)Nc2ccc(Cl)cc2)CC1 | i
Cn1c(=O)c2c(nc(Sc3n[nH]c(N)n3)n2Cc2ccccc2Cl)n(C)c1=O | i
Cc1ccc(Cl)cc1NC(=O)CCC(=O)Nc1cc(Cl)ccc1C | i
Cc1ccc(OCc2nc(-c3cccnc3)no2)cc1 | 5%
CCc1ccc(CCC(=O)Nc2ccc3ccccc3c2)o1 | ?
O=C(CCCN1C(=O)c2ccccc2C1=O)NCC1CCCO1 (stereo not drawn) | i
COc1ccc(OC)c(NC(=O)c2c(NC(=O)c3ccncc3)sc3c2CCC(C(C)(C)C)C3)c1 (stereo not drawn) | i
Cc1oc(-c2ccc3c(c2)OCO3)cc1C(=O)O | i
Cc1nn(S(=O)(=O)N2CCCCCC2)c(C)c1Cl | i
CCOC(=O)C1=C(c2ccccc2)NC(=S)NC1c1ccccc1OCC (stereo not drawn) | i
O=C(CCC(=O)c1ccc(-c2ccccc2)cc1)Nc1cccnc1 | i
CCOC(=O)C1=C(c2ccccc2)NC(=S)NC1c1cc(Cl)cc(OC)c1OC (stereo not drawn) | i
CC1CCc2ccccc2N1C(=N)N(C)C (stereo not drawn) | 1%
C=CCn1c(SCC#N)nc2sc3c(c2c1=O)CCCC3 | i
Cc1nn(-c2ccccc2)c(CC(C)(C)C(=O)O)c1C(=O)O | i
O=C(C1CCN(Cc2ccc(Cl)cc2)CC1)N1CCN(c2ccccc2F)CC1 | 1%
COc1ccccc1CNC(=O)c1cc(OC)c(OC)cc1OC | 3%
COc1ccc(N2C(=S)N(c3ccc(F)cc3)C3CS(=O)(=O)CC32)cc1 (stereo not drawn) | i
CCOc1ccccc1-c1nc(SCC(=O)Nc2ccc(I)cc2)n[nH]1 | i
COc1cccc(NC(=O)Cc2nnc(SCC(=O)Nc3cc(F)ccc3C)n2C)c1 | i
COc1cccc(C(=O)Nc2ccc([N+](=O)[O-])c(NC(=O)c3cccc(OC)c3)c2)c1 | i
Cc1ccc(C(=O)COC(=O)C(Cc2ccccc2)N2C(=O)C3C4C=CC(C5CC45)C3C2=O)cc1C (stereo not drawn) | 0%
Cc1ccc(Cl)c(OCCCN2CCCC2)c1 | 2%
CCC(=O)NC(c1ccc(OC)c(OC)c1)c1cc([N+](=O)[O-])c2cccnc2c1O (stereo not drawn) | 0%
Cc1cccc(C(C)C)c1NC(=O)CSCc1ccc([N+](=O)[O-])cc1 | i
COC(=O)c1ccc(NC(=O)N2CCCCC2)cc1 | i
COc1ccc(COC(=O)C2=C(C)NC(=O)CC2c2c(F)cccc2Cl)cc1 (stereo not drawn) | i
CC(C)Oc1cccc(C(=O)NC(=S)Nc2ccc(Br)c3ccccc23)c1 | 1%
CN(C)C(=O)Oc1ccc(-c2nnco2)cc1 | i
CCn1c(CCNC(=O)c2cccs2)nnc1SCC(=O)Nc1cc(C)c(C)cc1Br | i
COc1cccc(-n2c(/C=C/c3cccnc3)nc3ccc(I)cc3c2=O)c1 | i
CCC(=O)NC(NC(=S)Nc1ccc(C(=O)OC)cc1)C(Cl)(Cl)Cl (stereo not drawn) | i
Cc1ccc(C(=O)Nc2ccc(C(C)C)cc2)o1 | i
CCn1c(SCC(=O)Nc2cc(Cl)ccc2Cl)nnc1-c1ccc(OC)cc1 | i
O=C1CCCc2c1[nH]c1ccc(-c3ccccc3)cc21 | 1%
CN(c1ccccc1)S(=O)(=O)c1ccc(NC(=O)C2CC2)cc1 | i
Cc1nc2cc(NC(=O)Nc3cccc(C(F)(F)F)c3)ccc2n1C | i
COc1ccc(S(=O)(=O)N2CCN(c3ccccc3OC)CC2)cc1Cl | i
CCc1ccc2nc(Nc3nc(C)c(Cc4ccc(C)cc4)c(=O)[nH]3)nc(C)c2c1 | i
Cn1c2c(c(=O)n(C)c1=O)C(C(F)(F)F)(C(F)(F)F)N=C(c1ccc(Cl)cc1)N2 | 46µg/mL*
O=C(NC(=S)Nc1ccc(S(=O)(=O)N2CCN(c3ccccc3)CC2)cc1)c1ccccc1 | i
CCOC(=O)Cc1nnn(CC(=O)OCC)n1 | 0%
COc1cc2c(cc1C)-c1nc(NC(C)=O)sc1CC2 | i
CN(C(=O)c1ccc(NC(=O)CCCC(=O)O)cc1)c1ccccc1 | i
CCOC(=O)c1ccc(NC(=O)CN(C)S(=O)(=O)c2ccc(C)cc2)cc1 | i
CCC(CC)C(=O)Nc1ccc(OC)c(OC)c1 | i
Brc1ccc(Cn2c(-c3ccccc3)nnc2-c2ccccc2)cc1 | i
Cc1ccc(NC(=S)c2ccncc2)c(C)c1 | i
CC(=O)Oc1ccc(NC(=O)C2CCCCC2)c(C(=O)O)c1 | i
Cc1ccc(N/C(=N\c2nc(C)cc(C)n2)NC(=O)c2ccccc2)cc1 | 3%
CN1CCN(C(=O)CN(c2cccc(Br)c2)S(C)(=O)=O)CC1 | i
COc1cc(C2C3=C(CCCC3=O)NC3=C2C(=O)CCC3)ccc1OCC(=O)Nc1cccc(C)c1 | i
Cc1cc(Br)cc(C)c1OC(=O)c1ccccc1Cl | 7%
COc1ccc(-c2cn3cccnc3n2)cc1F | 4%
Other compounds follow.
SMILES | Mtb growth
CC(=O)c1ccc2[nH]c3c(c2c1)CCCC3=O | i
Cc1ccc(NC(=O)CSc2nc3sc(C)c(C)c3c(=O)n2-c2ccc(C)c(C)c2)cc1 | i
CC(C)Oc1ccc(NC(=O)c2ccc(-c3ccccc3)cc2)cc1 | i
CC(C)Oc1cccc(C(=O)N2CCN(c3ccc([N+](=O)[O-])c(NCCc4ccccc4)c3)CC2)c1 | 5%
O=C(CCCC(=O)n1cccn1)n1cccn1 | i
OCCNCCCCSc1ccc(Cl)cc1 | i
O=C(O)C(Cc1ccccc1)Nc1ncnc2ccccc12 (stereo not drawn) | i
COc1cc(C)c(Cl)cc1S(=O)(=O)N(C)C | 0%
CC(=O)N(C)c1ccc(NC(=S)NC(=O)c2cccs2)cc1 | i
COc1cc(SC)ccc1C(=O)Nc1nc2c(s1)CCCC2 | 0%
CCCN(CCC)S(=O)(=O)c1ccc(NC(=O)c2cc(OCC)c(OCC)c(OCC)c2)cc1 | i
Cc1nn(C(=O)N2CCOCC2)c(C)c1C | 2%
N=C1/C(=C\c2ccc(OC(=O)c3cccs3)c(Cl)c2)C(=O)N=C2SC=NN12 | 7%
CCc1sc(NC(=O)CN2C(=O)c3ccccc3C2=O)nc1-c1ccccc1 | i
O=C(Nc1cc(Cl)ccc1Cl)c1ccc(OC(=O)c2ccc([N+](=O)[O-])cc2)cc1 | 12%

A portion from the list above:
SMILES | Mtb growth
COc1ccc(C)cc1NC(=O)CN(c1ccc(C)cc1C)S(=O)(=O)c1ccc(C)cc1 | 12%
CCOc1cc(C2C(C(=O)OC)=C(C)NC3=C2C(=O)CC(C)(C)C3)cc(Cl)c1O (stereo not drawn) | 0%
COc1ccccc1NC(=O)c1c(NC(=O)c2cccc3ccccc23)sc(C)c1C | 1%
Cc1ccc(/C=C(\C#N)S(=O)(=O)c2ccccc2)c(C)c1 | i
Cc1ccc(Nc2nc(N)nc(CSc3nnnn3-c3ccccc3)n2)cc1 | i
CS(=O)(=O)N(CC(=O)Nc1cccc(Cl)c1Cl)c1cc(C(F)(F)F)ccc1Cl | 3%
CN1CCN(C(=S)Nc2ccc(Cl)cc2)CC1 | i
Cn1c(=O)c2c(nc(Sc3n[nH]c(N)n3)n2Cc2ccccc2Cl)n(C)c1=O | i
Cc1ccc(Cl)cc1NC(=O)CCC(=O)Nc1cc(Cl)ccc1C | i
Cc1ccc(OCc2nc(-c3cccnc3)no2)cc1 | 5%
CCc1ccc(CCC(=O)Nc2ccc3ccccc3c2)o1 | ?
O=C(CCCN1C(=O)c2ccccc2C1=O)NCC1CCCO1 (stereo not drawn) | i
COc1ccc(OC)c(NC(=O)c2c(NC(=O)c3ccncc3)sc3c2CCC(C(C)(C)C)C3)c1 (stereo not drawn) | i
Cc1oc(-c2ccc3c(c2)OCO3)cc1C(=O)O | i
Cc1nn(S(=O)(=O)N2CCCCCC2)c(C)c1Cl | i
CCOC(=O)C1=C(c2ccccc2)NC(=S)NC1c1ccccc1OCC (stereo not drawn) | i
O=C(CCC(=O)c1ccc(-c2ccccc2)cc1)Nc1cccnc1 | i
CCOC(=O)C1=C(c2ccccc2)NC(=S)NC1c1cc(Cl)cc(OC)c1OC (stereo not drawn) | i

Carrying on.
SMILES | Mtb growth
COC(=O)c1ccc(NC(=O)C(C)Oc2ccccc2OC)cc1 (stereo not drawn) | i
COc1cc(CNCCO)ccc1OCC(=O)Nc1ccc(Br)cc1 | 4%
CCOC(=O)N1CCc2c(sc(NCc3cc(OC)c(OC)cc3OC)c2C(=O)Nc2cc(OC)ccc2OC)C1 | i
CCOC(=O)Cn1nnc(-c2ccc(OCc3ccccc3F)cc2)n1 | 0.28µg/mL*
CCOc1cc(C2NC(=O)NC(C)=C2C(=O)Nc2cc(OC)c(Cl)cc2OC)ccc1O (stereo not drawn) | i
Cc1cccc(Nc2nc(=O)[nH]nc2C)c1 | i
O=C(NC(=S)Nc1ccc2c(c1)Cc1ccccc1-2)c1ccc2c(c1)OCCO2 | i
CC(C)(CO)NC(=O)Nc1ccc(Cl)cc1 | i
O=C(COc1ccccc1)Nc1ccc2oc(-c3ccncc3)nc2c1 | i
Cc1ccc2c(C)c(C(=O)Nc3ccccc3C(F)(F)F)oc2c1 | 1%
COc1ccc(C(=O)NC(=S)Nc2cccc([N+](=O)[O-])c2C)cc1I | i
Clc1ccc(CN2CCN(C3CCCCC3)CC2)cc1 | i
CNC(=O)c1c(NC(=O)c2sc3ccccc3c2Cl)sc2c1CCCC2 | i
Cc1ccc(S(=O)(=O)N(C)c2ccccc2C(=O)Nc2ccc(OCc3ccccc3)cc2)cc1 | i
O=C(O)CCCC(=O)Nc1ccccc1 | i
COc1ccc(C(=O)N=Nc2c(O)[nH]c3c(C)cccc23)cc1 | i
CCc1ccc(CN2CCN(Cc3ccc(SC)cc3)CC2)cc1 | i
CCc1cccc(C)c1NC(=O)CSc1nnc(C(CC(C)C)NC(=O)c2ccccc2Cl)n1CC (stereo not drawn) | i
C=C(C)CSc1nc2c(c(=O)[nH]c(=O)n2C)n1CCCc1ccccc1 | i
CC(=O)c1cccc(NC(=O)CSc2nnc3ccc4ccccc4n23)c1 | i
CSc1cccc(NC(=O)COc2ccc(S(=O)(=O)NC(C)(C)C)cc2)c1 | i
Cn1c(SC/C=C/c2ccccc2)nc2ccccc2c1=O | 20%
Cc1c(C(=O)Nc2ccc([N+](=O)[O-])cc2)csc1-c1ccccc1 | 2%
CCOC(=O)c1c(-c2ccc(Cl)cc2)csc1NC1=NS(=O)(=O)c2ccccc21 | 0%
FC(F)(F)c1cc(-c2cccs2)nc(Nc2nc3ccccc3o2)n1 | i
c1ccc(-n2nnnc2-n2cnc3ccccc32)cc1 | i
COc1cccc(C(=O)NCCSCc2c(Cl)cccc2Cl)c1 | i
CC1CCCC(C)N1S(=O)(=O)c1ccc(NC(=O)c2ccccc2C(=O)N2CCOCC2)cc1 (stereo not drawn) | i
CCN(CC)c1ccc2cc(-c3nnc(NCc4ccc(F)cc4)s3)c(=O)oc2c1 | i
CCCSc1nc2sc3c(c2c(=O)[nH]1)C(C)CCC3 (stereo not drawn) | 26%
O=C(C1CCN(S(=O)(=O)c2ccc(Cl)cc2)CC1)N1CCN(Cc2ccccc2)CC1 | 6%
COc1ccc(-c2nnc(SCC(=O)Nc3c(F)cc(F)cc3Br)o2)cc1 | i
O=C(CC12CC3CC(CC(C3)C1)C2)NC(=S)Nc1ccc(O)c(-c2nc3ccccc3o2)c1 | 39%
COc1cc(CNc2ccc(N3CCOCC3)cc2)cc(Cl)c1OCC(N)=O | i
CN(Cc1nc2ccccc2n1C)S(=O)(=O)c1ccc(F)cc1 | i
Cc1ccc(SCCCN2CCNCC2)cc1 | i
O=C(CC1(O)C(=O)N(Cc2ccccc2)c2ccccc21)c1ccc(Br)s1 (stereo not drawn) | 2%
CC1=C(C(=O)N2CCOCC2)C(c2cccs2)C2=C(CCCC2=O)N1 (stereo not drawn) | i
COc1cc2c(cc1OC)C(C)N(C(=S)NCc1ccccc1)CC2 (stereo not drawn) | i
COCCSc1ccccc1C(=O)Nc1ccccc1C(C)C | i
C=CCc1ccccc1OCc1nnc(NC(=O)C2CCCCC2)s1 | i
CC(C)CC(=O)N1CCN(C(=O)CCC2CCCC2)CC1 | i
O=C1CC(NC2CCCCC2)C(=O)N1c1cccc(C(F)(F)F)c1 (stereo not drawn) | i
CC(C)(C)c1cc(C(F)(F)F)c(C#N)c(SCC(=O)N2CCc3ccccc3C2)n1 | 5%
CC(C)(Oc1ccc(Cl)cc1)C(=O)Nc1nnc(-c2cccs2)s1 | i
C=CCn1c(SCC(=O)Nc2ccccc2F)nc2sc(-c3ccccc3)cc2c1=O | i
COc1ccc(S(=O)(=O)N(C)CC(=O)NCCC2=CCCCC2)cc1C | i
O=C(COc1ccc(CO)cc1Br)Nc1ccccc1 | i
CNC(=O)N1c2ccccc2C=Cc2ccccc21 | i
Cc1cc(Cl)cc(C)c1OCCOCCn1cnc2ccccc2c1=O | i
CCc1ccccc1NC(=O)Cc1ccc(C)cc1 | i
CC(C)NC(=O)c1ccccc1NC(=O)Nc1ccc(Cl)cc1 | i
CC(C)(C)C1CCC(OCC(O)CN2CCCC2)CC1 (stereo not drawn) | i
COc1ccc(C2C(C(=O)Nc3ccccc3)=C(C)Nc3ncnn32)cc1 (stereo not drawn) | 1%
Cc1cc(NC(=O)C(NC(=O)c2ccc(F)cc2)C23CC4CC(CC(C4)C2)C3)no1 (stereo not drawn) | i
Cc1ccccc1C(=O)N(C)c1cccc([N+](=O)[O-])c1 | 3%

Screening data (PubChem BioAssay)
